# Source: PubChem BioAssay (several laboratories)
# Beta apoptosis: inhibitors of cytokine-induced beta cell apoptosis, primary screen, luminescence; protection from apoptosis, % (test concentration not listed); INS-1E cytokine-induced death, ATP luminescence, 48 h; percent of positive-control rescue, neutral wells zero; 0.8% of 300,000 active;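 active = all replicates at 75% or more, or half of them and the mean; inconclusive = half reach 75% but not the mean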;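 note: 0% = cytokine-treated negative control wells and 100% = positive control rescue; higher means more ATP so stronger rescue from cytokine killing; wells of about 40 µL received 100 nL stock; the first replicate is given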
# LANA-H2B inh: blockers of LANA interaction with H2A/H2B – biochemical, FP readout, HTS, primary screen; inhibition, % (test concentration not listed); Protein LANA1 (Human herpesvirus 8 type P (isolate GK18)), Q9QR71; 0.6% of 320,000 active; cell-free LANA-H2A/H2B peptide, fluorescence polarization; in the data active = inhibition mostly above about 10%, no sharp cut-off; inactive = mostly below about 6.7%;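 note: stock transfer was 7.5 nL into about 10 µL; 0% = median of vehicle wells and 100% = median of positive control wells; one replicate is shown; the record names a cut of 25% in any replicate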
# Bfl-1 A1 inh: caspase 3/7 activation in MEF A1-2A-BIM cells, primary screen, A1 inhibitor project, cell-based, luminescence, HTS | Caspase-Glo 3/7 luminescence, 3 h; percent of clofoctol response, vehicle zero | caspase activation, % (no concentration beside the values) | 0.066% of 330,000 active | AID 2462, 2010;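 active = over half of replicate activation scores above 10%, or exactly half above 10 with the replicate mean above 10; inconclusive = replicate mean below 10 yet half the replicates above 10; inactive = over half of replicates below 10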;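 note: wells of about 30 µL received 50 nL stock; many hits fall short of the cut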
# T cruzi inh: inhibitors of intracellular T. cruzi growth, primary screen, luminescence, NIH3T3 host cells; 1.4% of 300,000 active; AID 1885, 2009; T. cruzi beta-gal in NIH3T3, 90 h; inhibition, % (no concentration beside the values);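 active = mean inhibition across valid replicates above about 55%, limit read from the data; inconclusive = mean below that limit but half or more replicates reach it; inactive = mean below it, under half of replicates reach it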;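 note: signal also drops with host cell toxicity which is not excluded here; 0% = plate median of DMSO wells and 100% = zero luminescence signal; higher percent means less beta-gal luminescence so fewer parasites; stock transfer was 50 nL into about 50 µL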
# Beta2AR agonist: beta2AR agonists driving receptor internalization, primary screen, cell-based, FAP fluorogen, flow cytometry; 0.43% of 340,000 active; response, % (concentration not given with the values); Am2.2-beta2AR cells; reference of the scale not given here;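 active = response above a set limit, near 3 SD of response in nonfluorescent compounds, cut at about 42% in these data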;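 note: stock transfer was 100 nL into about 11 µL; a reference agonist was the positive control; negative values mostly stem from fluorescent compounds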
# Target sequence (P07550 whole entry, looked up): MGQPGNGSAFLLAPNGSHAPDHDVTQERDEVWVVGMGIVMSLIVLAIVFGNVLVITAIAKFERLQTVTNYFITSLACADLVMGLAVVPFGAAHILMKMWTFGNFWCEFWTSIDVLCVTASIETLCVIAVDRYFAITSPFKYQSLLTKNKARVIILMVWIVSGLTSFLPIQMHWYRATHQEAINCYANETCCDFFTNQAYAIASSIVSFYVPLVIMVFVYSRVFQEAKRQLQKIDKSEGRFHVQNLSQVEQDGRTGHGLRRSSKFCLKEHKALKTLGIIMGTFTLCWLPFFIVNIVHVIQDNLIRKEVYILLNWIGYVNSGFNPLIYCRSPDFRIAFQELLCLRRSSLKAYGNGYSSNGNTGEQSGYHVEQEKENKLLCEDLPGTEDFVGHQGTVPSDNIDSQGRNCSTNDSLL
# ALR H2O2 inh: inhibitors of human ALR sulfhydryl oxidase, primary screen, biochemical, H2O2 detection, HRP-luminol luminescence, single point; AID 485317, 2010; inhibition, % (test concentration not listed); FAD-linked sulfhydryl oxidase ALR (Homo sapiens), P55789; 3.8% of 290,000 active; purified ALR, DTT oxidation;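 active = mean and each replicate at 75% or more; inconclusive = only one of the two met; inactive = neither met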;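 note: stock transfer was 7.5 nL into about 7.5 µL; 0% = neutral wells and 100% = wells with inactivated enzyme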
# Target sequence (P55789 whole entry, looked up): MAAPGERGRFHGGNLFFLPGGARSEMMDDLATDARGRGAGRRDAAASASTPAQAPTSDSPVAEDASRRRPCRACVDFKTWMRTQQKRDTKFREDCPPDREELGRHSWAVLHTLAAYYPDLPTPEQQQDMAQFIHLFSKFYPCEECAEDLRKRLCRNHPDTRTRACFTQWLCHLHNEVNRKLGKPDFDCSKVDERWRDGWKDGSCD
# rRNA inh HTS: reduced GFP signal of wild-type E. coli, primary screen, bacterial rRNA inhibitor project, GFP/RFP fluorescence, OD600, single point | GFP signal change (wild-type ribosome), % (test concentration not listed) | 1.6% of 350,000 active | E. coli WT GFP vs humanized-ribosome RFP mutants, 24 h; stronger effect = lower value; DMSO median 0, no signal -100;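 active = significant combined selectivity score with lowered wild-type GFP, culture density cut under 30%, mutant RFP and density less affected; inactive = any of these conditions unmet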; note: one replicate is shown; some compounds called inactive have numbers as strong as hits
# Calb FLC: C. albicans growth inhibition with fluconazole, primary screen, CaCi-2 strain, Alamar Blue fluorescence; C. albicans CaCi-2 (fluconazole-resistant clinical isolate) + fluconazole, 48 h; growth inhibition, % (test concentration not listed); 0.57% of 300,000 active;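 active = most replicates above 75%; inconclusive = exactly half above 75%; inactive = most below 75%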;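 note: all wells also contain fluconazole at 8 µg/ml as a sub-toxic cotreatment; 0% = median of DMSO wells and 100% = median of geldanamycin control wells; wells of about 8 µL received 7.5 nL stock; the first replicate is given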
# rRNA inh HTS OD600: second read-out of rRNA inh HTS, no call of its own (marks repeat the call); OD600 change, %; measured here: OD600 growth;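 optical density of the mix in the first replicate; 0 = DMSO median and -100 = no signal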
# rRNA inh HTS RFP: also measured in rRNA inh HTS; calls as there; RFP signal change, %; measured here: RFP humanized mutant strains;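 first replicate; 0 = DMSO median and -100 = no signal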
# * hit, by the source's call; u = inconclusive; x = no result given. A portion of the library. The share of hits here may be higher or lower than overall.
SMILES,Beta apoptosis,LANA-H2B inh,Bfl-1 A1 inh,T cruzi inh,Beta2AR agonist,ALR H2O2 inh,rRNA inh HTS,rRNA inh HTS OD600,rRNA inh HTS RFP,Calb FLC
CN(Cc1ccccc1)Cc1nc2c(c(=O)n(C)c(=O)n2C)n1CCc1ccccc1,-8,-4.1,-0.1,-22,-10,3,x,x,x,26
COc1ccc(NC(=O)CC2C(=O)N(C)C(=S)N2Cc2cccs2)cc1 (stereo not drawn),2,3.7,-0.1,6,0,-6,-12,-24,2.7,9
Cc1nn(C)c(Cl)c1CN1CCN(C2CCCC2)C(CCO)C1 (stereo not drawn),2,1.2,0.6,-2,-6,-1,6,8,4.5,1
O=C(O)CC(NC(=O)CCc1ccccc1)c1ccc(Cl)cc1 (stereo not drawn),-9,2.6,0.0,4,5,-19,3,11,-0.3,12
COc1ccc2c(=O)c3c(=O)n(Cc4ccco4)c(-c4ccc(C)cc4)nc3oc2c1,11,-0.2,-0.7,9,-6,53,x,x,x,3
CCNc1ccc(C(=O)N/N=C/c2c(C)nn(-c3ccccc3)c2N2CCCC2)cc1[N+](=O)[O-],10,-1.9,-0.2,24,-7,0,-2,0,-4.4,-3
Cc1cc(C)nc(N(C#N)C(C)C(=O)N(C)C)n1 (stereo not drawn),-5,4.0,1.2,-5,1,-4,x,x,x,-4
O=C(O/N=C\c1ccc(N2CCOCC2)c([N+](=O)[O-])c1)c1ccc(F)cc1,-1,-3.6,-1.1,-6,1,6,x,x,x,-6
O=C(Nc1cccc(O)c1)c1ccc(C(=O)c2ccccc2)o1,-5,1.2,-1.3,-24,6,-2,-7,-5,-5.0,-6
Cc1cc(C(=O)CSc2n[nH]c(N)n2)c(C)n1-c1cc(F)ccc1F,-6,0.2,0.8,9,4,32,x,x,x,0
CCOC(=O)C1=C(Nc2ccc(Br)cc2)CC(C)(O)C(C(=O)OCC)C1c1ccccc1 (stereo not drawn),-1,-0.1,0.6,3,2,-8,x,x,x,-1
CCOc1nc(NCc2ccco2)nc(Nc2ccccc2F)n1,3,3.2,1.2,2,2,-18,x,x,x,x
CN(C)c1ccc(N=Nc2ccc(C(=O)O)cc2)cc1,-5,2.8,-7.6,1,1,1,9,10,6.8,-19
COc1ccc(C)cc1NC(=O)CNC(C)C(=O)Nc1cc(Cl)ccc1Cl (stereo not drawn),-2,5.0,0.8,4,-16,2,-28,-38,-8.8,-4
COCCn1c(SCC(=O)NC2CC2)nnc1-c1ccc(Cl)cc1,-2,-3.7,1.0,x,-2,-5,3,1,0.4,x
N#Cc1cc2c(N)c(C(=O)Nc3ccccc3)sc2nc1N,x,0.7,0.3,18,x,-17,x,x,x,27
Cc1ccccc1OCc1nnc(SCC(=O)O)n1-c1ccccc1,x,0.6,0.3,-2,-2,0,4,8,0.6,5
Cc1ccc(NC(=O)Nc2cc(-c3ccccc3)nn2C)cc1Cl,-9,2.1,1.1,18,-1,2,-40*,5.6*,-13*,9
COc1ccc2nc3ccccc3nc2c1NC(=O)c1ccc(Cl)cc1,1,-4.2,0.2,11,-4,-21,x,x,x,-5
c1ccc2c(-c3nc4ncccc4o3)cccc2c1,-5,3.0,0.5,9,-14,0,x,x,x,38

# Reformatted as tab-separated lines: two of the compounds above.
Compound	Beta apoptosis	LANA-H2B inh	Bfl-1 A1 inh	T cruzi inh	Beta2AR agonist	ALR H2O2 inh	rRNA inh HTS	rRNA inh HTS OD600	rRNA inh HTS RFP	Calb FLC
COc1ccc2c(=O)c3c(=O)n(Cc4ccco4)c(-c4ccc(C)cc4)nc3oc2c1	11	-0.2	-0.7	9	-6	53	x	x	x	3
CCNc1ccc(C(=O)N/N=C/c2c(C)nn(-c3ccccc3)c2N2CCCC2)cc1[N+](=O)[O-]	10	-1.9	-0.2	24	-7	0	-2	0	-4.4	-3

# Additional compounds follow:
SMILES,Beta apoptosis,LANA-H2B inh,Bfl-1 A1 inh,T cruzi inh,Beta2AR agonist,ALR H2O2 inh,rRNA inh HTS,rRNA inh HTS OD600,rRNA inh HTS RFP,Calb FLC
CCN(C(=O)COC(=O)c1cnccn1)c1cccc2ccccc12,-7,-5.7,1.8,x,-7,-21,2,-2,1.4,x
CCn1c(SCc2c(Cl)cccc2Cl)nc2nc3c(cc2c1=O)CCCC3,28,-3.1,-0.3,29,0,1,-5,-11,-4.4,-3
CCOc1ccc(NC(=O)c2sc3nc(C)nc(N4CCOCC4)c3c2C)cc1,4,-4.1,1.2,3,69*,-3,-15,-27,-4.4,-1
O=C(Nc1ncccc1O)c1ccc(C(=O)c2ccccc2)cc1,-3,x,-2.8,8,-4,x,1,-8,-1.8,1
O=C(Nc1cnccn1)Nc1cccc(Cl)c1Cl,7,5.3,-0.3,19,5,3,-3,-3,-2.7,-4
CCOc1cc(N2CCOCC2)c(OCC)cc1NC(=O)CC12CC3CC(CC(C3)C1)C2,6,-0.6,-0.6,15,9,-7,x,x,x,8
O=C(Nc1ccncc1)Nc1ccc(Cl)cc1Cl,3,-0.9,0.6,55*,-6,-7,2,4,0.7,32
Cc1ccc(NC(=O)c2ccc(-n3cccn3)c([N+](=O)[O-])c2)cc1C,3,-1.4,0.6,16,-1,-6,x,x,x,2
C1CC(CN2CCOCC2)CN(Cc2nc(CC3CC3)no2)C1 (stereo not drawn),-3,3.4,-0.8,-1,-5,0,8,7,-4.0,21
NC(=O)NN=C1C2CCCC1C(c1ccccc1)NC2c1ccccc1 (stereo not drawn),-2,-8.0,0.3,19,-2,3,-26,-21,-4.0,0
COc1ccc(CN(CCN)C2CC(C)N(C)CC2C)cc1 (stereo not drawn),-1,-4.0,1.9,-27,0,-11,10,12,-2.8,-6
Cc1[nH]c2ccccc2c1SCC(=O)N1CCOCC1,2,7.0,-0.3,-6,3,22,2,9,-5.4,-3
COc1ccc(OC)c(C(c2nnnn2Cc2ccccc2)N2CCN(C3CCCCC3)CC2)c1 (stereo not drawn),-1,1.5,0.7,9,-4,-15,x,x,x,-18
CCCCC/C=C\C[C@H](O)/C=C/c1cccc(C[C@H](O)CCCCO)n1,x,8.1,0.0,14,-10,4,-1,-11,20,x
O=C(Nc1ccc(S(=O)(=O)Nc2nccs2)cc1)c1cccc(N2C(=O)c3ccccc3C2=O)c1,-6,-1.4,1.2,-13,2,-5,-1,-2,1.4,-4
COc1ccccc1C(=O)NCCCNC(=O)c1ccccn1,-4,1.6,0.0,-18,5,-6,1,5,0.1,18
O=C(/C=C/c1ccccc1)Oc1coc(CSc2ncccn2)cc1=O,-12,0.9,0.0,-14,5,97*,4,1,-1.1,1
CCn1c(=O)cc(OCC(=O)NCc2ccco2)c2ccccc21,x,0.5,0.7,3,4,-1,x,x,x,-17
CC(=O)c1ccc(NC(=O)C(C)OC(=O)c2ccc(Br)o2)cc1 (stereo not drawn),-2,-4.5,-0.1,x,1,x,1,18,-2.5,x
CNC(=O)CSc1nnc(-c2cc(C)cc(C)c2)o1,0,-0.2,-1.6,-5,0,-4,1,-3,-1.0,-7
Cc1cc(C)c(C#N)c(SCC(O)CS(=O)(=O)Cc2ccccc2)n1 (stereo not drawn),2,-0.6,-0.3,7,5,x,-9,-6,0.4,6
CCc1nc(NCC2CCCO2)c2oc3ccccc3c2n1 (stereo not drawn),-2,-2.1,0.7,25,-15,-9,x,x,x,5
O=C(c1ccco1)N1CCN(c2cc(N3CCOCC3)c(F)cc2[N+](=O)[O-])CC1,x,3.3,0.8,7,-9,-5,-5,-10,6.1,8
O=C(NC1CCCCC1)C1CC(=O)N(CCc2ccc(F)cc2)C1 (stereo not drawn),-1,-6.8,0.8,0,-5,-2,-38,-52,-3.1,-5
COc1ccc(NC(=O)CSc2nc3c(c(-c4cccs4)c2C#N)CN(C)CC3)cc1OC,-5,0.7,0.6,38,1,99*,x,x,x,4
CS(=O)(=O)Oc1ccccc1/C=C1/N=C(c2ccc(F)cc2)OC1=O,4,1.6,0.0,0,-3,2,x,x,x,10
c1ccc(-c2ccccc2OCCOCCN2CCNCC2)cc1,1,2.1,0.0,3,1,-12,-2,-9,-0.5,-13
O=C(NCc1ccccc1)C1=C[C@H](c2ccc3c(c2)OCO3)C[C@H](OCc2ccc(CO)cc2)O1,3,-2.3,0.7,37,1,-11,x,x,x,-5
CC(C)(C)c1nnc2cccc(Cl)n12,2,-3.4,-1.6,-6,-2,-10,5,2,-8.2,-2
COc1ccccc1/C=C/C=N/NC(=O)c1cccs1,9,-1.9,0.6,5,-2,-9,0,0,-2.8,1
Cn1nc([N+](=O)[O-])nc1Oc1ccccc1N,x,-0.8,0.7,63*,11,-20,x,x,x,7
Cc1ccc(CNC(=O)c2cc3cc(Br)ccc3oc2=N)cc1,-2,-5.3,1.0,-6,3,0,3,9,-1.7,7
CC(C)CC(=O)c1c[nH]c(C(=O)NCc2cccs2)c1,0,-4.9,0.6,-10,-4,-6,x,x,x,-2
CC(=O)c1ccc(N2C(=NC(=O)CCc3ccccc3)SC3CS(=O)(=O)CC32)cc1 (stereo not drawn),-2,-2.8,1.2,9,6,0,9,5,-1.4,-3
O=S(=O)(Nc1nc2ccccc2nc1-[n+]1ccccc1)c1ccc(Cl)cc1,-8,5.7,0.5,-10,-8,4,x,x,x,-1
O=[N+]([O-])c1c(Nc2ccccc2O)cc(N2CCOCC2)c2nonc12,8,10,-0.8,10,16,-43,-6,-12,-1.2,6
COc1cccc(CC(=O)OCC(=O)Nc2nnc(-c3ccccc3)o2)c1,-6,0.7,-0.7,-12,-7,1,-27*,-20*,-4.4*,-3
COCCNS(=O)(=O)c1cccn1-c1ncc(C(F)(F)F)cc1Cl,-12,2.3,1.1,-3,-2,-1,x,x,x,-23
COc1ccc(CCNS(=O)(=O)c2ccc3c(c2)OCCO3)cc1OC,-1,0.3,u,-2,18,-3,x,x,x,-3
COc1ccc(CCN2C(=S)NC3CC2(C)Oc2ccc([N+](=O)[O-])cc23)cc1OC (stereo not drawn),27,3.1,-1.5,11,16,-5,x,x,x,28
CCOc1ccccc1NC(=O)CN1CCCCCC1,-4,1.5,1.1,2,0,2,10,11,-3.5,16
Cc1noc(N)c1C1(O)C(=O)Nc2c(Cl)cc(Cl)cc21 (stereo not drawn),-16,4.8,-0.4,-4,2,-3,-2,-1,0.7,-20
Cc1ccccc1N1C(=O)C(Cl)=C(N2CCOCC2)C1=O,-7,-6.5,0.0,1,-3,13,7,7,-2.6,3
COc1ccc2cc(C3CC(c4ccco4)=NN3S(=O)(=O)c3ccccc3)c(Cl)nc2c1 (stereo not drawn),1,-8.3,1.0,0,7,12,x,x,x,0
Cc1ccc(S(=O)(=O)N2CCCCC2CCNC(=O)C(=O)Nc2ccccc2F)cc1 (stereo not drawn),7,-3.8,-0.1,12,-4,-30,4,2,0.1,0
